KCNQ2 inh: KCNQ2 potassium channel inhibitors, primary screen, cell-based, CHO-K1, FluxOR thallium flux, B-score (AID 2156); Potassium voltage-gated channel subfamily KQT member 2 (Rattus norvegicus), O88943; 20 min; active compounds read low; only compounds with negative scores are shown here; some inactives read as strong as hits; B-score at 10 µM; 1.1% of 310,000 active;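 active means fluorescence ratio B-score at most minus 3 library SDs, with starting brightness B-score within 2 library SDs, cut at about -5.5 in these data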
Target sequence (O88943 whole entry, looked up): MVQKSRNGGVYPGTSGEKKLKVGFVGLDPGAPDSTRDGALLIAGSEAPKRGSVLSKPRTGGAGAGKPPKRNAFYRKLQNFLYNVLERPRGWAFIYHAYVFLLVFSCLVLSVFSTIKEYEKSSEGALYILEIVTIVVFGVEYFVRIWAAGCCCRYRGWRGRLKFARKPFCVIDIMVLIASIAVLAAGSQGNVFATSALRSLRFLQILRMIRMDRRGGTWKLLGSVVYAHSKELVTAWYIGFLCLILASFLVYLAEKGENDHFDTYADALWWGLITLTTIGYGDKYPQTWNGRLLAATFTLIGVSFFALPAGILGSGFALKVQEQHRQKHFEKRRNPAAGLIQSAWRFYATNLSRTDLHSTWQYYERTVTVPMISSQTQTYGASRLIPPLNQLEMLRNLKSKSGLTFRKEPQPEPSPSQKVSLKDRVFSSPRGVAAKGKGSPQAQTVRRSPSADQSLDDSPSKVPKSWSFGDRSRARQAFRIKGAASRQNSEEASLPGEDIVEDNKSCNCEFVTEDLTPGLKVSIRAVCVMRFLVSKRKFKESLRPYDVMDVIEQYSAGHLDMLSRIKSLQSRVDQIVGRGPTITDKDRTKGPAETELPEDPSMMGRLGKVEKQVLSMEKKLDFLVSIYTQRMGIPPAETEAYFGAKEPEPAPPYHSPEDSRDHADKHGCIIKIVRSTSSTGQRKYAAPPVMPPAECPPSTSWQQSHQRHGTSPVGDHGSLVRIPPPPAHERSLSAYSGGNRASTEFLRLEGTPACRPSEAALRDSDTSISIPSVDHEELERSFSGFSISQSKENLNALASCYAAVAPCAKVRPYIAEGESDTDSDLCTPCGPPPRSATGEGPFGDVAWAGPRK
KCNQ2 inh baseline: also measured in KCNQ2 inh; calls as there; B-score; measured here: initial fluorescence intensity artifact check;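 brightness before thallium and not channel activity; 0 = typical well and far values either way flag optical interference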
* = called active by the depositor; i = inactive.

KCNQ2 inh	KCNQ2 inh baseline	structure
i	0.75	CC(=O)N1CCCc2cc(S(=O)(=O)N3CCCC(C(=O)NCc4ccc(C)cc4)C3)ccc21 (stereo unspecified)
i	-0.36	O=C(Nc1ccc(Cl)c(Cl)c1)C1=Cc2ccccc2OC1
i	-0.72	COCOc1ccc(/C=C/C(=O)c2c(OCOC)cc(OCOC)c(CC=C(C)C)c2O)cc1OCOC
i	0.98	CC(=O)c1ccc(NC(=O)CCc2ccc(C)o2)cc1
i	1.1	O=C(O)CN1C(=O)/C(=C\c2cc(Br)ccc2OCc2ccc(Cl)cc2)SC1=S
i	0.6	COc1ccc(/C=C/C(=O)c2ccc3ccccc3c2O)cc1CN1CCOCC1
i	1.1	COc1ccc(-c2noc(CCC(=O)NC3CCCCC3)n2)cc1OC
i	-0.98	CCN1CCCC1CNC(=O)CSCc1nc(-c2ccccc2C)oc1C (stereo unspecified)
i	-0.84	COc1cccc(C(=O)Nc2nc3ccccc3[nH]2)c1
i	0.03	CC(=O)c1c(O)ccc2c(-c3ccccc3)cc(=O)oc12

Arranged by value in KCNQ2 inh baseline (descending): some entries from above.
KCNQ2 inh	KCNQ2 inh baseline	structure
i	1.1	COc1ccc(-c2noc(CCC(=O)NC3CCCCC3)n2)cc1OC
i	0.03	CC(=O)c1c(O)ccc2c(-c3ccccc3)cc(=O)oc12
i	-0.36	O=C(Nc1ccc(Cl)c(Cl)c1)C1=Cc2ccccc2OC1
i	-0.84	COc1cccc(C(=O)Nc2nc3ccccc3[nH]2)c1
i	-0.98	CCN1CCCC1CNC(=O)CSCc1nc(-c2ccccc2C)oc1C (stereo unspecified)

More entries.
KCNQ2 inh	KCNQ2 inh baseline	structure
i	-2.1	COC(CNC(=O)c1ccc2c(c1)nc(C)n2-c1cccc(F)c1)OC
i	-0.52	Cc1cc(F)ccc1S(=O)(=O)N1CCC2(CC1)OCCN2S(=O)(=O)c1cccs1
i	0.18	COc1ccc(-c2cc(C(=O)Nc3cc(OC)c(OC)c(OC)c3)no2)cc1OC
i	-0.6	O=C(CSc1nnc(-c2ccccc2NC(=O)c2ccccc2)o1)OC1CCCCC1
i	-0.29	Clc1cccc(N2CCN(Cc3nnc(-c4ccccc4)o3)CC2)c1
i	-1.1	CC(C)Cn1cnc2c1c(=O)n(CC(=O)NC(=O)NC(C)(C)C)c(=O)n2Cc1ccccc1
i	-0.47	O=C(O)c1cc(NC(=O)c2cccc(N3C(=O)c4ccccc4C3=O)c2)cc(C(=O)O)c1
i	0.24	CC1CC(C)CN(CCCNC(=O)C2CCCN(S(=O)(=O)N3CC(C)CC(C)C3)C2)C1 (stereo unspecified)
i	0.57	CC(C)(C)C(=O)Nc1ccc(-c2nnc3n2CCCCC3)cc1
i	0.21	CC1CCc2nn(CC(=O)NCc3ccc(F)cc3)cc2C1 (stereo unspecified)

KCNQ2 inh	KCNQ2 inh baseline	structure
i	0.72	COc1ccc(C(CNC(=O)c2cccc(NS(=O)(=O)c3ccc(C)c(F)c3)c2)N2CCCC2)cc1 (stereo unspecified)
i	2.2	CCOc1ccccc1N/C=C/C(=O)C(C)(C)C
i	1.6	O=C(CN(Cc1ccc(Cl)cc1)C(=O)CN1C(=O)COc2ccccc21)NC1CCCC1
i	0.05	CN(CC(=O)Nc1ccc(N2CCOCC2)cc1)Cc1cc(=O)n2ccsc2n1
i	-0.11	O=C(CN1C(=O)NC2(CCCc3ccccc32)C1=O)c1ccc(Br)cc1 (stereo unspecified)
i	-0.4	N=c1c(C(=O)NC2CCCC2)cc2c(=O)n3ccccc3nc2n1C1CCCC1
i	0.78	CCNC(=O)NC(=O)COC(=O)c1ccccc1SCC(=O)NC(=O)NCC
i	0.03	O=C(Nc1ccccc1Cl)c1ccc2c(c1)N(Cc1ccc(F)cc1)C(=O)CS2=O (stereo unspecified)
i	-0.17	O=C1COc2ccc3ccccc3c21
i	2.4	CCOC(=O)[C@@H]1[C@H]2COc3cc(OC)ccc3[C@@H]2N2C(=O)N(c3ccc(C)cc3)C(=O)[C@]12C

KCNQ2 inh	KCNQ2 inh baseline	structure
i	0.76	COc1ccc(/C=N/NC(=S)Nc2cccc(C(=O)O)c2)cc1OC
i	0.3	CC1(C)OC(c2ccccc2)=C/C(=C/C=C2C(=O)c3ccccc3C2=O)O1
i	-1.3	CCCOC(=O)Nc1ccccc1C(N)=O
i	-0.42	CC(=O)NCCn1c(SCc2cc(F)ccc2F)nc2ccccc2c1=O
i	1.4	C/C(=N\Nc1nccnc1Cl)c1ccc([N+](=O)[O-])cc1
i	-1.5	O=C(c1cc(-c2ccccc2)nc2ccccc12)N1CCCc2ccccc21
i	-0.79	COC(=O)c1c(C)oc2c1cc(NS(=O)(=O)c1cccs1)c1ccccc12
i	0.25	CN(CC(=O)Nc1ccccc1Cl)C(=O)COC(=O)CSc1ccc(F)cc1
i	-0.7	O=C(O)CCC(=O)NCC(=O)c1ccc(F)cc1
i	-0.67	CCCS(=O)(=O)C(=C1NCCO1)S(=O)(=O)CCC

KCNQ2 inh	KCNQ2 inh baseline	structure
i	-0.85	CCNC(=S)N1CCN(CCN=CC2=C(O)CC(c3ccco3)CC2=O)CC1 (stereo unspecified)
i	0.53	Cc1nnc(C)n1/N=C/C=C/c1ccccc1
i	-1.8	CC(C)N(C(=O)CC1ON(C)C(=O)N1c1ccc(Cl)cc1)C(C)C (stereo unspecified)
i	-0.03	CN(C)CCn1c(=O)n(Cc2ccccc2)c(=O)c2c3c(sc21)CCCCC3
i	-1.7	COc1cc(/C=N/N2CCN(Cc3ccccc3)CC2)cc(OC)c1OC(C)=O
i	-0.32	O=C(NC(=S)NNC(=O)c1ccc(Cl)cc1Cl)c1cccnc1
i	0.25	COc1ccc(OC)c(NC(=S)NCC(c2cccnc2)N2CCOCC2)c1 (stereo unspecified)
i	-1.1	CC(=O)NC1CC2CCC(C1)N2Cc1ccc(C)cc1 (stereo unspecified)
i	-1.5	Cc1ccc(CCc2nnc(SCC(=O)Nc3cccc(Cl)c3)n2-c2ccccc2)o1
i	2.5	CCc1cc(CNC(=O)CC2C(=O)NCCN2Cc2ccccc2C(F)(F)F)on1 (stereo unspecified)

KCNQ2 inh	KCNQ2 inh baseline	structure
i	0.46	COc1ccc(C(=O)N/N=C/c2ccc3cccc(O)c3n2)cc1
i	-1.8	CCc1cccc2c(C(=O)C(NC(C)CC)c3ccccc3)c[nH]c12 (stereo unspecified)
i	1.3	CN1C(=O)C(C)(C)c2cc(S(=O)(=O)N(C)Cc3ccccc3)ccc21
i	0.37	Cc1nc(C)c(-c2csc(Nc3cccnc3)n2)s1
i	-1.3	O=c1cc(CN2CCN(c3ccccc3)CC2)c2cc(O)c(-c3ccccc3)cc2o1
i	0.92	CCn1c(=O)c(C(=O)Nc2ccccc2C)c(O)c2ccccc21
i	1.2	c1ccc2c(c1)nc(N1CCOCC1)c1c3ccccc3[nH]c21
i	-0.67	C=CCNCCCCOc1ccccc1-c1ccccc1
i	-0.15	Cn1c(=O)c2c(nc(Br)n2CCSc2ncccn2)n(C)c1=O
i	-0.41	Cc1nc(Nc2ccc3c(c2)OCCO3)c2nnn(Cc3ccccc3Cl)c2n1

KCNQ2 inh	KCNQ2 inh baseline	structure
i	-1.1	CC1=C(C(=O)OCc2ccccc2)C(c2ccccc2OS(=O)(=O)c2ccc(C)cc2)NC(=O)N1CCCC(=O)O (stereo unspecified)
i	1.1	Cc1ccc(OCC(=O)NCc2ccco2)cc1C
i	2.7	COc1ccc(-c2nc3c(c4nnc(SC(C)C(=O)Nc5ccccc5)n24)COC(C)(C)C3)cc1 (stereo unspecified)
i	0.7	CCN(CC(=O)Nc1c(F)cccc1F)C(=O)c1cc(S(=O)(=O)NCc2ccccc2)ccc1C
i	0.02	CN1CCN(c2nc(-c3cccs3)cs2)CC1
i	-0.28	O=[N+]([O-])c1cc(S(=O)(=O)N2CCCC2)ccc1SCCO
i	0.06	CCN(CC)CCNc1nc2c(c(=O)[nH]c(=O)n2C)n1CC(O)COc1ccc(Cl)cc1Cl (stereo unspecified)
i	0.28	CCOC(=O)c1c(NC(=O)Nc2ccccc2)sc(C)c1C
i	-1.2	Cc1c(CN2CCC(C)CC2)c(=O)n(-c2ccccc2)n1C
i	-2	COc1ccccc1N1CC(C(=O)Nc2ccc(S(=O)(=O)N3CCOCC3)cc2)CC1=O (stereo unspecified)

KCNQ2 inh	KCNQ2 inh baseline	structure
i	-0.76	COc1ccc(-c2c(NC(=O)c3ccco3)oc3c(C)cccc3c2=O)cc1
i	1.7	Cc1c(Cl)ccc2c(C(=O)NCCN3CCCCC3)cc(-c3ccccn3)nc12
i	-0.97	CN(C)C=NC(=O)c1ccc(N2CCN(c3ncc(C(F)(F)F)cc3Cl)CC2)cc1
i	-1.5	Cc1ccc(NC(=O)c2nn(C34CC5CC(CC(C5)C3)C4)cc2[N+](=O)[O-])cc1
i	1	COc1ccc(N(C(=O)Cn2nnc3ccccc32)C(C(=O)NCc2ccco2)c2ccc(C)o2)cc1 (stereo unspecified)
i	-1.4	COc1ccccc1NC(=O)N1CCC(c2nnc(SCC(N)=O)n2C)CC1
i	0.49	Cn1c(C(=O)NCc2cccs2)cc2c(=O)n(C)c3ccccc3c21
i	-0.14	O=C(Cc1ccc([N+](=O)[O-])cc1)Nc1ccc2c(c1)CCC2
i	0.82	Cc1ccc(N(CC(O)CN2C(=O)NC(C)(C)C2=O)S(=O)(=O)c2ccc(C)cc2)cc1 (stereo unspecified)
i	2.1	NCCCC[C@H]1CN=C(N)N1CCC12CC3CC(CC(C3)C1)C2

KCNQ2 inh	KCNQ2 inh baseline	structure
i	-0.09	CC(=O)NCC(=O)N(Cc1ccco1)C1(C(=O)NC2CCCC2)CCCCC1
i	2.1	Cc1ccc(OCC(=O)NNC(=S)NC(=O)C2CCCCC2)c(C)c1
i	-0.61	Cc1ccc(NC(=O)CSc2n[nH]c(=O)n2C2CC2)cc1S(=O)(=O)N1CCOCC1
i	7.4	CCC/C(O)=C1\C(=O)CC(C)(C)CC1=Nc1ccccc1O
i	2.2	CCOC(=O)c1ccc(N=c2sc(C(=O)OC)cc(=O)n2Cc2ccco2)cc1
i	1.1	CC(C)NC(=O)CN1CCN(C(=O)CCl)CC1
i	0.42	CC12CCC(C/C1=N\OC(=O)c1c(F)cccc1F)C2(C)C (stereo unspecified)
i	3.2	O=C(NCCc1ccccc1)c1ccccc1Cl
i	0.99	Cc1cc(C(=O)Nc2ccccc2[N+](=O)[O-])cs1
-7.3*	-0.9*	Cc1ccccc1OCC(=O)NCCC1=CCCCC1

Reformatted: results already given
CCC/C(O)=C1\C(=O)CC(C)(C)CC1=Nc1ccccc1O
  KCNQ2 inh: i
  KCNQ2 inh baseline: 7.4

CCOC(=O)c1ccc(N=c2sc(C(=O)OC)cc(=O)n2Cc2ccco2)cc1
  KCNQ2 inh: i
  KCNQ2 inh baseline: 2.2

CC(C)NC(=O)CN1CCN(C(=O)CCl)CC1
  KCNQ2 inh: i
  KCNQ2 inh baseline: 1.1

CC12CCC(C/C1=N\OC(=O)c1c(F)cccc1F)C2(C)C (stereo unspecified)
  KCNQ2 inh: i
  KCNQ2 inh baseline: 0.42

Carrying on.
KCNQ2 inh	KCNQ2 inh baseline	structure
i	0.41	Cc1n[nH]c(=S)n(/N=C/c2ccccn2)c1=O
i	-0.05	CCOC(=O)N1CCC(N2Cc3cccc(C(=O)N4CCN(C5CCCCC5)CC4)c3C2=O)CC1
i	-0.55	C/C(N=Nc1nc2ccccc2s1)=N\Nc1ccccc1O
i	-0.39	O=C(CC1C(=O)NCCN1Cc1ccoc1)NCc1cccc(OC(F)(F)F)c1 (stereo unspecified)
i	-0.1	CCN(CC)c1ccc(/C=N/NC(=O)c2c(-c3ccccc3)noc2C)cc1
i	-0.03	O=C(NNc1ncccc1-n1cccc1)c1ccc(Cl)cc1
i	-0.62	O=C1Nc2ccccc2C1=Nc1ccc(S(=O)(=O)Nc2nccs2)cc1
i	0.01	Cc1ccc(C(=O)Nc2ccc(Nc3ccccc3)cc2)cc1C
i	-0.76	Cc1ccc(/C(N)=N/OC(=O)CN(C)S(=O)(=O)c2ccc(C)cc2)cc1
i	-0.57	FC(F)(F)c1ccc(CN2CCCCCC2)cc1

KCNQ2 inh	KCNQ2 inh baseline	structure
i	-0.17	O=C(Nc1nnc(-c2ccc(F)cc2)o1)c1cccc([N+](=O)[O-])c1
i	-0.2	CCN(Cc1ccccc1)C(=O)c1ccc(CNS(=O)(=O)c2ccc(C)cc2)cc1
i	-0.25	CCc1nnc(NC(=O)c2n[nH]c(=O)c3ccccc23)s1
i	1.2	O=C(Nc1ccccn1)c1ccc2c(c1)OCCO2
i	1.4	CC(=O)C1=C(O)C(=O)N(c2ccc(Br)cc2)C1c1ccc([N+](=O)[O-])cc1 (stereo unspecified)
i	0.31	CN(CCN1CCOCC1)Cc1nc(-c2ccccc2)no1
i	1.1	COCc1cc(C)nc(SCC[N+](C)(C)CC(=O)Nc2ccccc2)c1C#N
i	1.6	CC(C)(C)c1ccc(-c2n[nH]c(=S)n2-c2ccccc2)cc1
i	-0.67	O=C1NC[C@@H](Cc2cccc3ccccc23)N(CC2(c3ccccc3)CC2)C1=O
i	-0.04	Cc1nnc(SCC(=O)N2CCN(S(=O)(=O)c3ccccc3)CC2)s1

KCNQ2 inh	KCNQ2 inh baseline	structure
-5.8*	-0.56*	CCN(Cc1ccccc1)C(=O)c1oc2ccc(C)cc2c1C
i	0.59	O=C(O)CSc1ccccc1C(=O)O
i	-3.5	C=CCNC(=O)CNS(=O)(=O)c1ccc(F)cc1
i	-0.93	COc1cc(CCC(=O)Oc2ccc(C(C)=O)cc2)cc(OC)c1OC
i	-1.5	Clc1ccc2c(c1)c1ccccc1n2CN1CCOCC1
i	-0.6	COc1cc2ccccc2cc1C(=O)Nc1cc(C)ccn1

Bioassay records from PubChem BioAssay.

This is a subset; the hit share may differ from the screen's.
